# KCNQ2 pot: potentiators of rat KCNQ2 potassium channel | O88943 | CHO-K1 KCNQ2, FluxOR thallium flux fluorescence; hits give high values | B-score at 10 µM | 310,000 compounds, 0.54% hits;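 active means fluorescence ratio B-score at least 3 SD of library B-scores, with initial fluorescence B-score within 3 SD, cut at about 5.3 in these data; same plate scores as AID 2156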;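 further: B-score of peak minus minimum over baseline fluorescence ratio after K+ and Tl+ stimulus; positive B-score means potentiation of KCNQ2 with more thallium influx and brighter signal; only the inactives scoring about 0 or higher are listed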
# Target sequence (O88943 whole entry, looked up): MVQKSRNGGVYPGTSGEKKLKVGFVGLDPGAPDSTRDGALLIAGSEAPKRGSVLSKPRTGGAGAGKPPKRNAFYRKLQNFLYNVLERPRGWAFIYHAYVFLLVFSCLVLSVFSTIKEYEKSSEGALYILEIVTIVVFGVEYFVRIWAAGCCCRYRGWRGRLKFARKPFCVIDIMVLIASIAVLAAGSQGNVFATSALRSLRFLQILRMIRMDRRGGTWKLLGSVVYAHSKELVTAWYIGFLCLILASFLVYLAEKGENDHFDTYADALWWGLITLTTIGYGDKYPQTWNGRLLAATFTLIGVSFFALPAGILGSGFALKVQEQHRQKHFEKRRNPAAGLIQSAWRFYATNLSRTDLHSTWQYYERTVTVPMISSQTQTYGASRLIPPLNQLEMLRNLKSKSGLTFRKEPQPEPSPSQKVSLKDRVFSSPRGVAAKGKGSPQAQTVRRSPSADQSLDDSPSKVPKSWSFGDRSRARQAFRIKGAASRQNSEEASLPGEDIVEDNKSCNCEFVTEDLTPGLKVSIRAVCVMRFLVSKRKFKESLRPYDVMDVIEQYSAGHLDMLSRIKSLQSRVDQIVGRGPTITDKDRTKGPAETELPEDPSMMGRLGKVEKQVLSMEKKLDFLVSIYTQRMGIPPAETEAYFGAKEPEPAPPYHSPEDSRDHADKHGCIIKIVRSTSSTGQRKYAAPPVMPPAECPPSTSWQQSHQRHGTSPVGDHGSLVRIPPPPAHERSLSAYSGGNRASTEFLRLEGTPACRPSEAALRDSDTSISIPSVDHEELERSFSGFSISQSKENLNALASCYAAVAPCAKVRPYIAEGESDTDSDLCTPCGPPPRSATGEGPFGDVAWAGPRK
# KCNQ2 pot baseline: recorded beside KCNQ2 pot, whose call it bears; B-score; compound at 10 µM; measured here: initial fluorescence intensity artifact check;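 brightness before thallium and not channel activity; 0 = typical well and far values either way flag optical interference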
# Numbers without * were called inactive. This is a subset. The share of hits here may be higher or lower than overall.
SMILES,KCNQ2 pot baseline,KCNQ2 pot
CCCCNC(=O)O[C@H]1C[C@@H]2CCN3C(=O)CCC[C@H]([C@H]1Cc1ccccc1)[C@H]23,0.13,0.46
Cc1ccc(/C=C/C(=O)OCC(=O)Nc2cccc(S(=O)(=O)N(C)C)c2)o1,0.01,1.4
CC(=O)Nc1nnc(SCC(=O)Nc2ccc3c(c2)OCCO3)s1,1.3,0.9
c1ccc(Cc2nnc(N3CCOCC3)c3ccccc23)cc1,0,0.99
CCC(=O)Nc1ccc(Cl)c(NC(=S)NC(=O)COc2ccccc2)c1,0.83,0.06
CC1CN(S(=O)(=O)c2ccccc2)CC(C)O1 (centres undefined),1.4,0.74
N/C(=N\OC(=O)c1ccc(Br)cc1)c1ccccc1,0.09,0.84
COc1ccc(OC)c(NC(=O)c2[nH]c(C)c(C(C)=O)c2C)c1,0.02,0.07
CC(C)(C)NC(=O)NC(=O)COC(=O)c1ccc(OC(F)(F)F)cc1,0.81,0.43
Cc1ccc(NC(=O)COC(=O)C(NS(=O)(=O)c2ccc(Cl)cc2)C(C)O)cc1C (centres undefined),-0.03,0.23
COc1ccc(S(=O)(=O)N2CCN(C(=O)c3ccco3)CC2)cc1C(C)(C)C,-0.67,0.01
COc1ccc(CCNC(=O)c2cc(S(=O)(=O)N3CCC4(CC3)OCCO4)ccc2F)cc1OC,-0.16,0.07
Cc1c(NC(=O)C2CCCO2)cccc1[N+](=O)[O-] (centres undefined),-0.54,0.74
COc1cc(CNC2CCCCC2OC)cc(OC)c1OC (centres undefined),0,1.4
OCCC1CN(Cc2cccc(OC3CCCC3)c2)CCN1Cc1ccsc1 (centres undefined),1.4,0.32
CS(=O)(=O)Nc1ccc(S(=O)(=O)NCCc2ccccc2)cc1,-1.4,0.06
CCCN1CCC(NC(=O)Nc2ccc(Br)cc2)CC1,-0.12,2.7
COc1ccc(CNC(=O)CCCN2C(=O)c3ccccc3C2=O)cc1,-0.39,1.3
OCCNc1ncnc2ccc(Br)cc12,2.5,0.94
COc1cc(C2NC(=O)C(C#N)=C(Nc3cccc(C)c3)S2)ccc1O (centres undefined),-1.6,1.1

# Remaining list, next part.
SMILES,KCNQ2 pot baseline,KCNQ2 pot
N/C(=N\OC(=O)CCCOc1ccccc1)c1ccccc1,0.63,0.48
Cc1noc(C)c1C(=O)NC1=NCCS1,-0.01,0.46
N#Cc1c(Cl)cccc1-n1ccnc1,0.57,0.9
COc1ccc(C(=S)N2CCCC2)cc1Br,-0.18,0.02
O=C(NCCS(=O)(=O)NCc1ccc(F)cc1)c1ccccc1,-0.06,1.1
COc1ccc(CCNC(=O)C2CCN(C(=O)c3cccs3)CC2)cc1,-0.13,0.36
Cc1ccc(C)c(CN2CCC(CNC(=O)Nc3ccc(C)c(F)c3)CC2)c1,-4,0.96
Cc1ccc(C)c(NC(=S)N2CCC(NC(=O)c3cccc(F)c3)CC2)c1,-4,0.73
Cc1c(C(=O)N2CCOCC2)oc2ccc(S(=O)(=O)N3CCCCCC3)cc12,-1.9,0.04
Nc1nc2ccccc2n1C(=O)CCc1ccccc1,-0.03,0.52
COc1ccc(CCNC(=O)CSc2nc3[nH]ncc3c(=O)n2-c2cccc(C(F)(F)F)c2)cc1OC,-0.01,1.4
CCOC(=O)C1CCCN(c2c(N3CCN(C)CC3)c(=O)c2=O)C1 (centres undefined),0.03,0.49
COc1ccc2cc3cc(C(=O)N4CCCC(C)C4)oc3nc2c1 (centres undefined),1,0.11
C=CCc1cc(Cl)ccc1OCCOCCNC(C)CC (centres undefined),0.33,0.16
CCOc1cc(NC(=S)NCC2CCCO2)c(OCC)cc1NC(=O)c1ccc(F)cc1 (centres undefined),0.5,1
C1CCc2nc3c(nc2C1)CCCC3,-0.11,0.79
O=C(Cc1c(F)cccc1Cl)NCCN1CCOCC1,-0.93,0.91
Cc1cc(C)c(OCC(=O)Nc2cccc(NC(=O)c3ccco3)c2)c(Br)c1,-0.64,0.45
C#CC[N+](C)(C)CC#Cc1ccc(C)cc1,-0.25,0.17
O=C(O)c1cccn2c(=O)c3ccccc3nc12,-1.5,3.2

# Compound profiles, as listed above.
# c1ccc(Cc2nnc(N3CCOCC3)c3ccccc23)cc1 in the list: KCNQ2 pot baseline: 0; KCNQ2 pot: 0.99
# CCC(=O)Nc1ccc(Cl)c(NC(=S)NC(=O)COc2ccccc2)c1 in the list: KCNQ2 pot baseline: 0.83; KCNQ2 pot: 0.06

# Next compounds follow.
SMILES,KCNQ2 pot baseline,KCNQ2 pot
COc1cc(NS(=O)(=O)c2ccc(NC(C)=O)cc2)ncn1,-1.6,0.09
Cc1ccc(/C=C(\C#N)C(=O)NC(C)c2ccccc2)o1 (centres undefined),0.16,1.5
Cc1ccc(S(=O)(=O)NCCCC(=O)O)cc1,-0.44,0.03
Cn1cnc([N+](=O)[O-])c1Cl,1.8,0.44
COc1cccc(-c2c(C(=O)N/N=C/c3ccncc3)nnn2-c2nonc2N)c1,0.56,0.39
COc1ccc(-c2noc(CCC(=O)NCc3cccnc3)n2)cc1,-0.81,1.7
COc1cc(NC2c3ccccc3C(=O)N2Cc2ccccc2Cl)cc(OC)c1 (centres undefined),0.58,0.19
CCOC(=O)c1sc(NC(=O)CSc2n[nH]c(-c3ccncc3)n2)c(C#N)c1C,-0.28,0.04
Cc1ccccc1-c1nnc(SCC(=O)Nc2ccc(Cl)cc2)n1N,0.75,0.2
Nc1cc(Cl)nc(N/N=C/c2ccccc2[N+](=O)[O-])n1,-0.13,0.95
CCOC(=O)Cc1cnc(NC(=O)NC(C(=O)OCC)(c2ccccc2)C(F)(F)F)s1 (centres undefined),-2.4,0.3
Cn1c(C(=O)NC2CC2)cc2c(=O)n(C)c3ccccc3c21,-2.7,1.2
CCOc1ccc(NC(=O)C(C)Sc2nnnn2C)cc1 (centres undefined),-1.3,1.8
Cc1[nH]c2ccccc2c1/C=C(\C#N)C(=O)NCc1ccccc1,2.1,0.29
CCOC(=O)c1ccc(NC(=O)CCOc2ccc(OC)cc2)cc1,-0.11,0.29
C=CCc1cccc2cc(C(=O)Nc3cccc(C(=O)O)c3)c(=O)oc12,0.01,0.93
COc1cccc(CNC(=O)C2CCCN(S(=O)(=O)c3c(C)noc3/C=C/N(C)C)C2)c1 (centres undefined),0.23,2
COc1ccc(OC)c(NC(=O)CC2C(=O)NCCN2C(=O)c2ccccc2)c1 (centres undefined),0.02,0.07
O=[N+]([O-])c1cc(F)c2cccnc2c1O,-2.3,3.6
CCc1ccc(C(=O)COC(=O)C(Cc2ccccc2)NC(=O)C2CCC(C)CC2)cc1 (centres undefined),-1.3,0.38

# 3 entries from above, arranged by heavy-atom count, low to high.
SMILES,KCNQ2 pot baseline,KCNQ2 pot
Nc1cc(Cl)nc(N/N=C/c2ccccc2[N+](=O)[O-])n1,-0.13,0.95
COc1cc(NS(=O)(=O)c2ccc(NC(C)=O)cc2)ncn1,-1.6,0.09
CCc1ccc(C(=O)COC(=O)C(Cc2ccccc2)NC(=O)C2CCC(C)CC2)cc1 (centres undefined),-1.3,0.38

# Remaining list, next part.
SMILES,KCNQ2 pot baseline,KCNQ2 pot
CCOC(=O)CCCNC(=O)CN1C(=O)NC(CCc2ccccc2)C1=O (centres undefined),-0.02,0.76
COc1ccc(-c2noc(C(=O)NCc3ccccc3Cl)n2)cc1OC,-1.5,1.6
COc1nc(N)nc(N)c1NS(=O)(=O)c1ccc(C)cc1,-0.34,0.71
Cc1ccnn2c(-c3ccccc3)c3c(=O)n(C)c(=O)n(C)c3c12,1.6,0.27
CCCN(CCC)C(=O)Cn1c(=O)n(CCCCC(=O)NCc2ccco2)c(=O)c2ccccc21,0.01,0.11
CCCCNC(=O)Nc1ccccn1,0.94,0.82
O=C(O)c1cccc(Cn2c(Cl)c(/C=N/NC(=O)c3ccc(O)cc3)sc2=O)c1,0.02,1.9
CC1CCN(S(=O)(=O)c2ccc(NC(=O)Cc3cccs3)cc2)CC1,0.03,0.02
Cc1ccc(NC(C)C(=O)N/N=C/c2ccc([N+](=O)[O-])s2)cc1 (centres undefined),0.98,0.34
c1ccc(SCCCCNC2CCCC2)cc1,-0.08,1.2
CC1CN(Cc2nc3c(c(=O)n(C)c(=O)n3C)n2CCc2ccccc2)CC(C)O1 (centres undefined),0.25,0.63
CC(C)COc1ccc(C(=O)OCCN2CCOCC2)c(O)c1,0.61,0.05
COCOc1cc(O)c(C(=O)/C=C/c2ccc(OCOC)c(OCOC)c2)c(OCOC)c1,-0.05,1.3
NS(=O)(=O)c1cccc(NC(=O)c2cccc3c(Br)cccc23)c1,0.02,0.48
COc1ccccc1N(CC(=O)NC1CCCCC1)C(=O)Cn1nnc(-c2ccc(C)o2)n1,1.4,0.28
COc1ccccc1N1CCN(S(=O)(=O)CCNC(=O)c2ccc(Br)o2)CC1,-0.78,1.8
CCCCn1c(N)c(N(CC)C(=O)c2cccc(S(=O)(=O)N3CCCc4ccccc43)c2)c(=O)[nH]c1=O,-0.61,1.2
COc1ccccc1NC(=O)N[C@@H](Cc1c[nH]c2ccccc12)C(=O)NN,0.27,0.86
COc1ccc(Nc2ncc(C#N)c(N)n2)c(OC)c1,-0.64,0.87
CCn1c(CC(=O)Nc2ccccc2C)nnc1SCC(=O)NC1CCCC1,-1.2,0.61

# (listing goes on)
SMILES,KCNQ2 pot baseline,KCNQ2 pot
COc1ccc(NC(=S)N2N=CCC2c2ccccc2)cc1 (centres undefined),-0.05,0.9
Cn1c(=O)[nH]c(=O)c2c1ncn2CCCc1ccccc1,0.16,0.96
CC(C)c1c(C(=O)N/N=C/c2c[nH]c3ccccc23)nnn1-c1nonc1N,1.9,0.64
O=C(NCCc1c[nH]c2ccccc12)c1ccc2[nH]c(=O)c(=O)[nH]c2c1,-1.2,0.89
Cc1cc(S(=O)(=O)N2CCCC(N(C)CCc3ccccn3)C2)c(C)s1 (centres undefined),0.19,0.03
COc1ccc(NC(=O)COC(=O)COc2cccc3c2OC(C)(C)C3)cc1,0.53,2.2
CCc1cc2ccccc2nc1SCC(=O)NC1CCCC1,0.93,1.1
CCc1ccc2oc(C(=O)N3CCN(C)CC3)cc(=O)c2c1,0.02,0.02
Cc1ccc(/C=C/C(=O)Nc2nnc(C)s2)o1,-0.01,2.1
COc1cc(OC)cc(C(=O)NCCCCNC(=O)c2cc(OC)cc(OC)c2)c1,0.43,0.22
COCC(=O)Nc1cc(C(=O)NCC(C)C)ccc1Cl,-0.84,3.1
Cc1ccc2[nH]cc(CCNS(=O)(=O)c3ccc(F)cc3)c2c1,-0.16,0.01
COC(=O)C1=C(C)N(CC2CC2)C(=NCc2cc(OC)c(OC)c(OC)c2)N[C@H]1c1ccccc1,-0.03,2.3
CC(=O)Cc1nsc(NC(=O)c2ccc(COc3ccccc3Cl)o2)n1,-0.36,1.6
CCOC(=O)c1sc(NC(=O)CCN2CCN(C)CC2)c(C(=O)OCC)c1C,0.1,0.37
CS(=O)(=O)N(CC(=O)N1CCCC1)c1ccc2c(c1)OCCO2,-0.33,0.36
CCOC(=O)c1cc(C)sc1NC(=S)Nc1ccccc1,-0.89,0.84
Cc1nc(SCC(=O)N2CCOCC2)c2c(C)c(C)sc2n1,-1.5,2.8
C/C(=N\NC(=O)c1nn(C)c(C)c1Br)c1ccc(NC(=O)C2CCCC2)cc1,1.4,0.89
Cn1c(=O)c2[nH]c(SCc3ccccn3)nc2n(C)c1=S,0.4,1

# Other records follow:
SMILES,KCNQ2 pot baseline,KCNQ2 pot
Cc1cc(C)cc(NC(=O)[C@@H](NC(=O)c2ccco2)C(C)C)c1,-1.4,0.58
Cc1oc2c(F)c(F)c(F)c(F)c2c1S(=O)(=O)Nc1cccc(C(F)(F)F)c1,-0.03,0.49
FC(F)C(F)(F)C1=CC(c2ccccc2)=NCCN1,1.8,0.79
Cn1cc(C(CC(=O)O)C(=O)O)c2ccccc21 (centres undefined),0.03,1.4
COC(=O)Nc1ccc(C)c2nsnc12,0.03,1.4
COc1cc(C(=O)N2CCN(Cc3ccc4c(c3)OCO4)CC2)c([N+](=O)[O-])cc1OC,0.05,1.4
CC(O)CNCCCOc1cccc(C(F)(F)F)c1 (centres undefined),-0.06,2.2
Cc1nn(C)cc1/C=N/NC(=O)Cn1nccc1C,-2.1,1.5
COc1ccc(-c2cc(C(=O)OCC(=O)c3cccc([N+](=O)[O-])c3)c3cc(C)ccc3n2)cc1,-1.1,0.89
C#CCNC(=O)C1=C[C@@H](c2coc3ccccc3c2=O)C[C@@H](OCc2ccc(CO)cc2)O1,0.62,0.67
O=c1[nH]c2cc3c(cc2cc1CN(Cc1ccco1)C(=S)NCC1CCCO1)OCCO3 (centres undefined),-0.55,0.7
C=CCOc1c(Br)cc(/C=N/NC(N)=O)cc1OC,-0.47,1
COC(=O)CNS(=O)(=O)c1ccc(OC)cc1,-0.39,0.91
COc1cc(NC(=O)c2ccc3c(=O)n(Cc4ccco4)c(=S)[nH]c3c2)cc(OC)c1OC,-0.18,2.9
CC1CC(C)CN(S(=O)(=O)c2ccc(C(=O)NCc3ccco3)cc2)C1 (centres undefined),0.53,1.1
CCOC(=O)c1c(-c2ccc(C)cc2C)csc1NC(=O)CSc1nnnn1C,0.26,0.9
COc1ccc(NC(=O)CSc2ncnc3c2nnn3-c2ccc(F)cc2)c(OC)c1,0.4,0.35

# Bioassay records from PubChem.
